# TRPML1 agonist: activates the human TRPML1 channel. 410,000 compounds, 0.12% hits. activation, % (concentration not given with the values). AID 624414. TRPML1-expressing cells, Ca2+ dye fluorescence, FDSS; host cell line not named in the record; reference of the full effect not given here; in the data active = activation above about 50%; inconclusive = about 30% to 50%; inactive = below about 30%; further: 0% is about no effect; the text of the record puts the active cut at 80%
#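 Calcium fluorescence on an FDSS kinetic reader gave the read-out. Tet-induced TRPML1-DL cells were plated overnight, dye-loaded (Ca8 with quencher, 45-90 min, room temperature, dark), then read 110 s after compound addition, and again 110 s after 4uM final 54-4 (EC80).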
# TRPV1 potentiator: human TRPV1 potentiation | 320,000 compounds, 0.02% hits | potentiation, % at 8.33 µM | TRPV1-expressing cells, Fluo-8 calcium influx, capsaicin EC20 potentiation; host cell line not named in the record; control for the full effect not named in the record; active means potentiation above 80%; inconclusive means 30% to 80%; inactive means below 30%; further: 0% is about no effect
# Target sequence (Q8NER1 whole entry, looked up): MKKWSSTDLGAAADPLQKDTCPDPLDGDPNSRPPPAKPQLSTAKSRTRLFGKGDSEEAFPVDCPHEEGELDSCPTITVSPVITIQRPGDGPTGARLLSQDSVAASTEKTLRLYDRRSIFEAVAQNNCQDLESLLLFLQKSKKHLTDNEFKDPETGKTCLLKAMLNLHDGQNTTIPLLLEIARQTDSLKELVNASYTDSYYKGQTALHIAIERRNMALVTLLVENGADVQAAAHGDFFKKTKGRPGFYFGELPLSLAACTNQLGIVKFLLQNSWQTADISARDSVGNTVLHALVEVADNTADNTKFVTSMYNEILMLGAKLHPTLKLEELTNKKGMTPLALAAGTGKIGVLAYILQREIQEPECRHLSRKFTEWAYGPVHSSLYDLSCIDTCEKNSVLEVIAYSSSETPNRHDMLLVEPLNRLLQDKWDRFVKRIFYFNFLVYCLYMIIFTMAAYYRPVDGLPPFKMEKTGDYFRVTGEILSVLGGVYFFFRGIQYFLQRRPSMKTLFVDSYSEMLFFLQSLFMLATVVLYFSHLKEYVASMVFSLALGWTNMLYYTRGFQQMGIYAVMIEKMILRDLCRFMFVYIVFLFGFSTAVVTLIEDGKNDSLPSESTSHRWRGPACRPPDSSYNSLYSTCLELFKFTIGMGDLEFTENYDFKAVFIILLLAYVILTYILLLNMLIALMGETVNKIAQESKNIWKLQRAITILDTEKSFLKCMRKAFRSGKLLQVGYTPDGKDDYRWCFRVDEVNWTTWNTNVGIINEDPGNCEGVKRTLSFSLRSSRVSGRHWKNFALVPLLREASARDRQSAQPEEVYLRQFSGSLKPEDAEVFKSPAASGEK
#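 TRPV1-expressing cells were cultured overnight at 35.5C and loaded with Fluo-8 calcium dye for 40 to 90 min at room temperature. After a 10 s baseline, compound was added and calcium influx was read kinetically for 3 min (ex 480/em 520 nm).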
# TRPML1 blocker: human mucolipin-1 channel inhibition; Q9GZU1; TRPML1-inducible cells, Ca2+ dye fluorescence, FDSS; stronger effect = lower value; inhibition of EC80 agonist-evoked calcium signal; activity change, negative = inhibition, % (no concentration beside the values); 390,000 compounds, 0.02% hits; AID 624415; in the data active means activity change below about -50%; inconclusive means about -30% to -50%; inactive means above about -30%;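 further: stimulus is agonist 54-4 at its EC80 concentration; on the % scale 0 is the no-effect control and ±100 the full control effect; compound concentration not given in the record; the text of the record puts the active cut at -80%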
#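 TRPML1-DL cells, Tet-induced overnight (~16 h, 37 °C) at 1,500 cells/well, were loaded with Ca8 no-wash dye plus quencher for 45-90 min at room temperature. Compounds were pinned during FDSS kinetic reading; agonist 54-4 at EC80 (4 uM final) then added.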
# Sfp inh: inhibitors of Bacillus subtilis Sfp phosphopantetheinyl transferase | Biochemical Sfp PPTase activity, qHTS | Potency, µM, for inactives: max response, negative = inhibition, actives largely listed as inhibitors | 310,000 compounds, 3.5% hits; active means well fitted inhibition curve with a large enough effect; inconclusive means small, poorly fitted or top-dose-only effect, or another doubt; inactive means no such curve, though single readings can be large or run the other way;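 further: the enzyme is Sfp with the accession as filed and its product quenches rhodamine fluorescence; potency means the concentration at half of the fitted maximal effect; 0% = enzyme reaction without inhibitor and -100% = no enzyme wells; top concentration of the series not given in the record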
#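 Sfp 15 nM + cpd, 15 min RT; start w/ rhodamine-CoA 5 uM, BHQ-2-YbbR 12.5 uM (final); 50 mM Hepes pH 7.6, 10 mM MgCl2, 0.01% NP-40, 0.01% BSA; read 525/598 nm at 0 and 30 min.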
# Menin MLL FP FL: displaces fluorescein MLL peptide from human menin; AID 1766; 290,000 tested, under 10 active; Fluorescence polarization, fluorescein-MLL peptide displacement from menin; FP activity change, % at 61.4 µM; inconclusive = falling polarisation curve, or a change in total fluorescence; inactive = total fluorescence flat and polarisation flat or rising; no compound was filed as active; the % refers to the polarisation; negative = inhibition;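 further: % of control where 0% means no effect; inhibitors lower the polarisation; unlabelled MLL peptide was the positive control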
# PINK1 expr mod: changes PINK1 expression; Potency, µM (top dose mostly 76.6 µM), inactives show at the top dose activation (PINK1 increase), most hits filed as activators; AID 624263; PINK1 immunofluorescence, high-content cytometry, 24 h; 410,000 compounds, 0.2% hits; active = well fitted activation curve with a large enough effect; inconclusive = small, poorly fitted or top-dose-only effect; inactive = flat fitted curve, though single readings scatter; cell line not stated here;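 further: potency means the concentration at half of the fitted maximal effect; % of control where 0% means no effect; nearly all actives have a fitted effect of over 65% in size; a mitochondrial uncoupler was the plate control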
#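 A stable cell line was treated with compounds at 5 concentrations for 24 hours, with CCCP as control. PINK1 levels and mitochondrial localization were measured by immunofluorescence with mitochondrial, cell and nuclear markers after fixation, read by laser-scanning cytometry.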
# ClpP mod: qHTS Assay for Activators of ClpP. purified B. subtilis ClpP, FRET peptide cleavage, 20 min. 340,000 compounds, 1.9% hits. Potency, µM (top dose mostly 57.5 µM), for inactives: at the highest dose activity change, negative = active; active = well fitted falling curve with a large enough effect; inconclusive = small, poorly fitted or top-dose-only effect; inactive = no such curve, though single readings can be large or run the other way; further: potency means the concentration at half of the fitted maximal effect; the source files actives as falling curves though it sought activators and does not explain the sign; nearly all actives have a fitted effect of over 65% in size; many hits overshoot -100%
# Target sequence (P80244 whole entry, looked up): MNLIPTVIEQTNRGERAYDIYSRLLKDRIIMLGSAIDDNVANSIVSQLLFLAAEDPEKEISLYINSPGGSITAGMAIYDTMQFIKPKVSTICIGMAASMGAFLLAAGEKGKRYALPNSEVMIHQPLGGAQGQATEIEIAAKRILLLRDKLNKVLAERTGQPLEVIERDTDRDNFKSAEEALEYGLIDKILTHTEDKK
#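 Buffer: 100 mM Tris/HCl pH8, 100 mM KCl, 0.05% low protease BSA, 2.5% glycerol, 0.01% Tween-20. ClpP 10 microg/mL final; 20 min RT; delta FRET normalized to ADEP and DMSO controls.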
# An asterisk follows results filed as active; ? = inconclusive; / = no result given; & = joins results of further samples; [ ] = remark or other dose.
compound	TRPML1 agonist	TRPV1 potentiator	TRPML1 blocker	Sfp inh	Menin MLL FP FL	PINK1 expr mod	ClpP mod
CSCCC(NS(=O)(=O)c1ccc2c(c1)oc(=O)n2C)C(=O)NC1CCCc2ccccc21 (stereo not drawn)	0.1	-20	-13	14%	4.4	9.3%	-2.6%
O=C(CCN1C(=O)C2CCCCC2C1=O)Nc1ccc(Br)cc1F (stereo not drawn)	0.6	-7	42	/	/	-2.9%	/
CCc1cc(C(=O)N2CCN(c3ncccn3)CC2)sc1C	-0.3	-21	-9	/	/	1.2%	/
CCOC(=O)c1c(C)[nH]c(CCC(=O)NCc2cc(OC)c(OC)c(OC)c2)c1C	1.8	/	-16	/	/	-0.2%	0.6%
O=C(CN1C(=O)C2CC=CCC2C1=O)OCc1cc(=O)n2cc(Br)ccc2n1 (stereo not drawn)	0.3	0	43	19%	-1.3	-0.8%	-2.3%
O=C(Nc1ccc(-c2nc3ccccc3s2)c(OC(=O)c2ccccc2)c1)c1ccccc1	1.2	3	-5	32%[activator]	8.5	4.1%	-4.2%
COc1ccc(Cc2nc3c4cnn(-c5cccc(F)c5)c4ncn3n2)cc1	0.8	/	-25	/	/	0.5%	?
Cc1nn(Cc2cccc(C(=O)Nc3ccn(Cc4ccccc4F)n3)c2)c(C)c1[N+](=O)[O-]	-0.3	4	10	22µM*	3.0	?	0.8%
O=C(NC1CCCC1)C(c1cccnc1)N(Cc1ccccc1)C(=O)c1csnn1 (stereo not drawn)	0.0	-3	-5	19%	1.7	-0.1%	/
CCN(CC)S(=O)(=O)c1ccc2c(c1)nc(SC(C)C(=O)NCC1CCCO1)n2CC (stereo not drawn)	-0.1	3	44	11%	/	-0.8%	-2.2%
Cc1c(NC(=O)COC(=O)c2ncc(Cl)c(Cl)c2Cl)c(=O)n(-c2ccccc2)n1C	-0.1	9	17	/	/	-0.4%	-21%
COc1ccc(/C=N/n2cnc3c([nH]c4ccc(F)cc43)c2=O)cc1CN1CCCC1	-0.6	?	21	-1%	10	-1.2%	-0.3%
C=CCNC(=O)c1ccc(CN(c2ccc(OCC)cc2)S(=O)(=O)c2ccc(C)cc2)cc1	1.4	8	-8	9%	0.1	7.3%	1.9%
O=c1[nH]c(=S)[nH]cc1Oc1ccccc1	0.4	/	28	/	/	0.2%	/
O=c1c2ccccc2nc2n1-c1ccccc1CCC2	0.0	-5	-6	10%	-2.0	3.4%[38.3 µM]	-6.2%
CCc1ccc(C(=O)Nc2cc3c(cc2Cl)OCCCO3)cc1	-0.2	/	7	-4%	6.0	1.9%	0.6%
CCc1ccc(N=c2c([N+](=O)[O-])nn(-c3ccc4c(c3)OCCO4)n2O)cc1	2.6	3	-10	-14%	-0.5	-0.4%	/
O=C(Nc1cccc(S(=O)(=O)N2CCCCC2)c1)C1CCCC1	-0.8	-6	-8	/	/	1.2%	0.7%
CCOC(=O)c1cc(CC)sc1NC(=O)COC(=O)c1cc[n+]([O-])cc1	0.1	5	-8	18%	-7.7	-1.3%	/
COc1ccccc1N1C(=O)c2cccc3cccc(c23)C1=O	1.0	-6	-10	7%	-0.8	1.6%	2.4%
COc1cc([N+](=O)[O-])ccc1NC(=O)CSc1nccn1C	0.0	-1	-13	-5%	6.4	1.0%	/
COc1ccccc1CNC(=O)c1ccc(Cn2c(SCc3ccccc3)nc3cccnc32)cc1	0.7	/	-22	/	/	-0.5%	4.2%
N/C(=N\OC(=O)COc1ccc2ccccc2c1)c1ccncc1	1.6	12	7	-24%	-4.7	9.3%	0.5%
COC(=O)c1ccccc1NC(=S)NC(=O)c1ccccc1	0.2	-15	-4	?	0.1	1.8%	-17%
O=C(COc1ccc(F)cc1Br)NCC1COc2ccccc2O1 (stereo not drawn)	0.9	/	4	/	/	2.2%	-1.7%
Cc1nccc(-c2cccc(NC(=O)Nc3ccc(Cl)cc3)c2)n1	0.2	-7	-2	6%	3.9	-0.5%	-0.5%
O=c1c(Cl)c2oc3ccccc3nc-2c2ccccc12	23	17	4	14%	?	?	1.2%
C/C(=N/NS(=O)(=O)c1ccc(C)c(C)c1)c1ccncc1	0.0	-18	-16	11%	/	-0.6%	-0.1%
O=C(Nc1cc(Cl)ccc1-n1cncn1)c1ccc([N+](=O)[O-])o1	-0.2	2	14	/	/	7.8%	1.1%
O=C1N=C(N2CCN(c3cccc4ccccc34)CC2)S/C1=C/c1cccs1	0.5	1	-11	-3%	-0.3	0.5%	-4.6%
CC(C)c1ccc(S(=O)(=O)NCCCN2CCOCC2)cc1	0.2	/	2	/	/	-0.3%	-0.2%
CCn1cc(S(=O)(=O)CC(=O)Nc2ccc(C)cc2)c2ccccc21	1.1	1	-1	5%	-0.1	9.0%	-1.6%
COc1ccccc1CC1(C)NC(=O)N(CC(=O)N2CCc3ccccc3C2)C1=O (stereo not drawn)	-0.4	4	-1	5%	2.8	0.9%[38.3 µM]	-2.0%
Cc1cccc(CNC(=O)c2ccc3nc(Cc4ccccc4F)oc3c2)n1	0.2	-10	17	11%	/	2.8%	-5.6%
COc1cccc(/C=C/C(=O)c2ccc3c(c2)OCO3)c1OC	-0.8	-12	23	/	/	-3.7%	0.6%
Cc1ccc(Cl)cc1N1CCN(CC(=O)Nc2ccc(CN3CCCCC3)cc2)CC1	6.5	4	6	-13%	-0.4	4.0%	0.2%
C=CC(=O)NC(C)(C)CCN1CCOCC1	-0.8	5	-5	6%	-4.7	0.3%	/
CCOC(=O)CCNCC1COc2ccccc2O1 (stereo not drawn)	-0.5	6	3	-11%	-0.9	-1.5%	-2.5%
Cc1ccccc1-c1cc2nc(NCc3ccccc3F)n(C)c(=O)c2s1	-0.7	/	/	/	/	11%	?
CN1CCc2c(sc(/N=C/c3cc(C(C)(C)C)ccc3O)c2C#N)C1	-0.1	-5	29	71µM*	?	0.2%	/
CCOC(=O)c1c(NC(=S)SC)sc(C(=O)N2CCc3ccccc3C2)c1C	-0.7	/	15	/	/	-0.6%	1.9%
Cc1ccccc1S(=O)(=O)N1C[C@H]2CON(C)[C@H]2C[C@H]1c1cccc(-c2ccccc2)c1	2.1	/	-17	/	/	-1.0%	-0.5%
O=C(COC(=O)Cn1cnc2ccccc2c1=O)NCCC1=CCCCC1	-0.2	-20	21	6%	1.2	1.5%	-9.3%
Cc1ccc(C)c(SCC(=O)OCC(=O)NCc2ccccc2)c1	0.1	-20	-4	11%	3.7	-0.2%	/
Cc1sc2ncnc(N3CCC(C(=O)N(C)CC(=O)Nc4ccccc4Br)CC3)c2c1C	0.9	-10	0	5%	/	-0.9%	-2.1%
CC1=C(C)CC(C(=O)c2ccccc2)C(C(=O)O)C1 (stereo not drawn)	0.2	-4	8	-4%	8.5	9.7%[38.3 µM]	-0.6%
COc1ccc2nc(NC(=O)c3nc(S(=O)(=O)Cc4cccc(C)c4)ncc3Cl)sc2c1	1.6	/	11	/	/	1.7%	2.2%
COc1ccccc1NC(=O)C(C/C=C(/C)Cl)C(C)=O (stereo not drawn)	-0.5	2	13	21%	-0.4	-1.5%	0.2%
Nc1nnc(SCc2ccccc2F)s1	3.3	-7	-10	13%	-1.1	2.4%	-3.1%
O=C(c1ccc(Br)o1)N1CCN(C/C=C/c2ccccc2)CC1	0.1	6	-2	10%	0.3	-1.4%	0.9%

# Following part:
compound	TRPML1 agonist	TRPV1 potentiator	TRPML1 blocker	Sfp inh	Menin MLL FP FL	PINK1 expr mod	ClpP mod
O=C(OCc1cc(=O)n2ccsc2n1)c1ccc(OC(F)F)cc1	0.5	-2	35	/	/	-1.4%	0.4%
O=C(COC(=O)c1ccccc1NCCO)Nc1cccc(S(=O)(=O)NC2=NCCCCC2)c1	1.7	7	-13	/	/	-1.2%	/
Cc1cccc(N2C(=O)CC(N3CCC(c4nc5ccccc5[nH]4)CC3)C2=O)c1 (stereo not drawn)	0.0	10	37	0%	0.4	3.0%[38.3 µM]	-3.1%
CCOC(=O)C(C)NC(=O)C1CCN(c2ncnc3c2nc2n3CCCCC2)CC1 (stereo not drawn)	1.1	/	5	/	/	0.4%	0.9%
Cc1cc(-c2onc(C)c2C(=O)Oc2ccc(Cl)cc2)no1	3.4	0	14	-7%	0.7	-0.8%	0.6%
O=C(N/N=C/c1ccco1)c1cc(C2CC2)nc2ccccc12	/	6	/	-3%	1.4	/	/
COc1cccc(Nc2ncc3ncc(=O)n(Cc4ccc(F)cc4)c3n2)c1	/	/	/	14%	7.7	19%	/
COc1ccc2[nH]cc(CCNc3ccnc(-c4ccoc4)n3)c2c1	/	/	/	?	-2.2	0.8%	/
C[C@H](CO)N1C[C@H](C)[C@@H](CN(C)S(=O)(=O)c2ccc(F)cc2)Oc2ccc(NC(=O)NC3CCCCC3)cc2C1=O	-0.4	/	4	/	/	2.3%	0.5%
COc1ccc(CC(=O)NCc2cn3ccsc3n2)cc1	0.6	15	-1	0%	-1.6	0.8%	0.2%
Cc1[nH]c(SCC(=O)Nc2cc(C(N)=O)cc(C(N)=O)c2)nc1Cc1ccccc1	-1.1	/	-17	/	/	1.5%	/
Cc1noc(C)c1COc1ccc(C(=O)N2CCN(c3ccccc3F)CC2)cc1	1.0	-19	9	/	/	0.7%	/
CCn1ncc(Br)c1C(=O)Nc1cc([N+](=O)[O-])ccc1C	2.0	-14	9	1%	2.2	1.2%	3.6%
Cc1ccc(Sc2c(C=O)c3ccccc3n2C)cc1	0.9	-1	6	-13%	0.4	2.7%	1.9%
O=C1c2ccccc2C(=O)N1Cc1cc(-c2ccc(Cl)cc2)no1	1.8	/	12	/	/	4.6%[38.3 µM]	-3.1%
CCCSc1ncc(Cl)c(C(=O)Nc2ccc(S(=O)(=O)Nc3ncccn3)cc2)n1	0.1&-0.3	14	39&-18	4%	/	4.7%&-0.9%	-2.4%&-1.2%
CC(C)(CO)NCC(O)COc1ccc2c(c1)CCC2 (stereo not drawn)	1.1	-1	14	5%	-0.2	0.5%	-1.7%
CC(C)S(=O)(=O)N1CCCC(C(=O)c2cccc(Cl)c2)C1 (stereo not drawn)	-1.8	-13	-8	6%	1.0	-1.6%	-21%

# Compounds as they come. Share with any hit: about 4.4%.
